HSD17B inh – blocks hydroxysteroid 17-beta dehydrogenase activity | Potency, µM (series often up to 57.1 µM), without a hit: top-dose activity change, negative = inhibition, hits mostly inhibitors | recombinant HSD17B10, NADH fluorescence kinetic; many of its hits are not listed in these tables | actives 7.6% (n = 75,000) | Q99714; active = well fitted inhibition curve with a large enough effect; inconclusive = small, poorly fitted or top-dose-only effect; inactive = no such curve, though single readings can be large or run the other way;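 note: the protocol describes HADH2 (HSD17B10) and not the HSD17B4 of the title; nearly all actives have a fitted effect of over 70% in size; most hits overshoot -100% by far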
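Enzyme plus compound, 15 min room temperature; substrate mix added (NAD+ 1 mM, beta-hydroxybutyryl-CoA 90 uM final); plates read kinetically for NADH fluorescence. HADH2 was His-tagged, E. coli-derived, 20 nM.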
* hit, by the source's call; ? = inconclusive; [ ] = dose if it differs, or a comment. % is set by controls: 0 for no effect and ±100 for the full control effect; potency is the fitted concentration of half-maximal effect. These rows are one share of the data, so the mix of outcomes need not match the whole.

SMILES	HSD17B inh
O=C(Nc1cccc2ccccc12)OC1C=CS(=O)(=O)C1 (stereo not drawn)	32µM*
COc1ccc(C2c3c(oc4ccccc4c3=O)C(=O)N2CCN2CCOCC2)cc1OC (stereo not drawn)	5%
COC(=O)/C=C/S(=O)(=O)c1ccc(NC(C)=O)cc1	-7%
Nc1ccn([C@@H]2O[C@H](CO)[C@@H](OP(=O)(O)O)[C@H]2O)c(=O)n1	4%
CCNC(=O)Cn1cnc2c1c(=O)n(C)c(=O)n2C	-4%
O=C(Nc1nnc(SCc2ccccc2)s1)c1cccs1	-6%
COc1cc(-n2nc(C)c3c2OC(N)=C(C#N)C3c2ccccc2)c(Cl)c(Br)c1O (stereo not drawn)	?
O=C(COc1ccccc1)OCc1cc2ccccc2[nH]c1=O	1%
Cc1cc(C)c2[nH]c(=O)c(CN(Cc3nnnn3C3CCCC3)C3CCCCC3)cc2c1	-3%
CN(C)c1ccc2nc3c(C(=O)O)cc(=O)c(O)c-3oc2c1	?
O=C(NC1CCSC1=O)c1cccc(C(=O)NC2CCSC2=O)c1 (stereo not drawn)	-25%
CN(C(=O)c1ccccc1C(=O)O)C1CC(C)(C)NC(C)(C)C1	2%
O=C1CCCN1CCC1CCN(C2CC(=O)N(c3ccc(Cl)cc3)C2=O)CC1 (stereo not drawn)	-9%
CCOC(=O)c1c(C)[nH]c(C)c1C(=O)CSc1nnc(-c2cc(OC)c(OC)c(OC)c2)o1	5%
C=CC[C@@H]1C=C[C@@H](O/N=C(/C)CCC(=O)OC[C@@H]2O[C@H](C#Cc3ccccc3)C=C[C@@H]2Oc2ccc(C)cc2)[C@@H](CO)O1	-3%[11.4 µM]
Cc1ccccc1OCC(=O)Nc1ccccc1N1CCOCC1	-1%
N#Cc1cccc(NC(=O)N2CCCC3(CCN(C(=O)c4cnccn4)CC3)C2)c1	3%
COc1ccc(OC)c(NC(=O)CSc2nnnn2-c2ccc3c(c2)OCO3)c1	10%
CC(C)C(C(=O)Nc1ccc(N2CCOCC2)cc1)N1C(=O)c2ccccc2C1=O (stereo not drawn)	6%
CN(C)c1nc2c(c(=O)[nH]c(=O)n2C)n1Cc1ccc(F)cc1	4%
Cc1ccc2cc(C(c3nnnn3CC3CCCO3)N3CCc4ccccc4C3)c(=O)[nH]c2c1 (stereo not drawn)	-6%
Cn1ccc(O)c(C#N)c1=O	17%
CC(=O)Nc1ccc(-c2cc(C(=O)O)c3cc4ccccc4cc3n2)cc1	4µM*
O=C(Nc1ccc(Cl)cc1)N(Cc1nnc2n1CCCCC2)c1ccccc1	2%
CCN(CCNC(=O)Cn1cc2c(n1)CCCC2)c1ccccc1	1%
Next section.
SMILES	HSD17B inh
CCN1C(=O)CC(N2CCC(Cc3ccccc3)CC2)C1=O (stereo not drawn)	5%
COc1ccc(-c2noc(C3CCCN(C(=O)c4ccccc4OC)C3)n2)cc1OC (stereo not drawn)	7%
N#CCCn1c(=O)c(-c2cccc(C#N)c2)nc2cnc(Oc3ccccc3)nc21	-18%
COCc1nnc(NC(=O)c2ccc(S(=O)(=O)N3CCCCCC3)cc2)o1	-1%
Cc1ccc(Cl)cc1N1CCN(C(c2cccnc2)c2nnnn2C2CCCCC2)CC1 (stereo not drawn)	-6%
CCOC(=O)C1=C(C)Nc2nc3ccccc3n2C1c1ccncc1 (stereo not drawn)	10%
c1ccc(CNc2ccnc(-c3ccc4c(c3)OCO4)n2)cc1	-23%
Cc1ccc(S(=O)(=O)Cn2nnnc2C(C(C)C)N2CCc3ccccc3C2)cc1 (stereo not drawn)	-22%
O=C(CN1C(=O)NC(Cc2ccccc2)C1=O)NC(=O)NC1CCCCC1 (stereo not drawn)	2%
O=C1[C@@H]2Cc3ccccc3CN2C(=O)N1c1cccc(F)c1	-1%
COc1ccc(C2C(C(=O)Nc3cccnc3)=C(C)Nc3nc(-c4cccs4)nn32)cc1OC (stereo not drawn)	7%
CCOC(=O)c1nn(-c2ccccc2)c(=O)c2c(N)scc12	32µM*
Cc1cc(C(F)F)n2nc(C(=O)Nc3ccc(S(=O)(=O)N4CCCC4)cc3)nc2n1	4%
CCOC(=O)NC(Nc1nc2ccccc2s1)(C(=O)OCC)C(F)(F)F (stereo not drawn)	5%
Cc1cccc(C)c1NC(=O)C(NC=O)c1ccc(N(C)C)cc1 (stereo not drawn)	?
O=C(NCCc1cn2ccsc2n1)C1CCCCC1	10%
CCCc1[nH]nc2c1C(CCc1ccccc1)C(C#N)=C(N)O2 (stereo not drawn)	?
O=C(Oc1nsnc1N1CCCCC1)N1CCOCC1	5%
Cc1noc(C)c1CSc1nc2ccccc2n1C	0%
Cc1cccc(Nc2nc(N)nc(CN3CCN(Cc4ccc5c(c4)OCO5)CC3)n2)c1	1%
CC(NC(=O)c1cc2c(=O)n(C)c3ccccc3c2n1C)c1ccc2c(c1)OCCO2 (stereo not drawn)	?
CSc1cccc(NC(=O)Cn2cccc2)c1	-11%
C#CCN(C)CCCOc1ccc(Cl)cc1Cl	-5%[25.6 µM]
Cc1ccc(C(=O)Nc2ccccc2N2CCN(C(=O)C(C)C)CC2)cc1C	9%
CCOC(=O)[C@@H](O)Cc1cnc2ccccc2n1	-4%[11.4 µM]
Continuation.
SMILES	HSD17B inh
COc1ccc(C2CC(c3cc(Br)ccc3F)n3nnnc3N2)cc1 (stereo not drawn)	2%
CC(C)C1N(c2ccccc2)C(N)=C(C#N)C1(C#N)C#N (stereo not drawn)	11%
CCOC(=O)N1CCN(C(=O)c2oc3ccc(S(=O)(=O)N4CCCCC4)cc3c2C)CC1	-3%
CCC1(CC)NC(=O)N(CC(=O)OCC(=O)Nc2cc(C)ccc2C)C1=O	7%
CCCn1c(NCc2cccc(OC)c2O)nc2ccccc21	-16%
Cc1c(NC(=O)c2cnn3c2NC(c2ccco2)CC3C(F)(F)F)c(=O)n(-c2ccccc2)n1C (stereo not drawn)	-2%
CC1(C)CC(=O)C2=C(C1)Nc1ccccc1NC2c1cccnc1 (stereo not drawn)	-1%
O=C(OC1CCCCC1)c1ccc2c(c1)C1C=CCC1C(C(=O)O)N2 (stereo not drawn)	2.5µM*
O=C(Cc1cccs1)N1CCN(C(=O)C2CCCO2)CC1 (stereo not drawn)	0%
CC(=O)N1CSCC1C(=O)O (stereo not drawn)	2%
Cc1ccc2c(c1)NCC(C(=O)NC1CCCCC1)O2 (stereo not drawn)	3%
OC(COCC1CC=CCC1)Cn1cnc2ccccc21 (stereo not drawn)	-1%
COc1cccc(Cn2nnc(C(=O)NCc3ccccc3Cl)c2N)c1	-1%
O=C(CSc1ncccn1)Nc1ccccc1	-4%
CCS(=O)(=O)NCc1csc(-c2ccccc2)n1	6%
c1coc(CNc2nc3sc4c(c3c3ncnn23)CCCC4)c1	-13%
COc1ccc(NC(=O)c2cc(C3CC3)on2)c(OC)c1	?
C/C(C=O)=C/c1ccccc1	4%
COC(=O)c1ccc(C)c(NC(=O)c2c(-c3ccccc3)noc2C)c1	-2%
CCN(CC(=O)N1CCOCC1)S(=O)(=O)c1ccc(C)cc1	6%
COc1ccc(-c2cc(-c3c(O)c(OC)c4occc4c3OC)[nH]n2)cc1OC	-7%
CSc1ccc(Cn2nnc(C(=O)NCc3ccccc3)c2N)cc1	9%
Cc1ccc(SCC(=O)N2CC(C)OC(C)C2)cc1 (stereo not drawn)	2%
CCC(C)c1c(O)nc(SCC(=O)c2ccccc2)[nH]c1=O (stereo not drawn)	-15%
CC(=O)c1cccc(NC(=O)c2ccc(N(C)S(C)(=O)=O)cc2)c1	13%
Carrying on:
SMILES	HSD17B inh
COC(=O)CN1C(=O)CC(C)(C)S(=O)c2ccccc21 (stereo not drawn)	5%
CCOCCOCC	-3%
Cc1ccccc1-n1c(SCc2cc(=O)n3ccccc3n2)nc2[nH]ncc2c1=O	25µM*
COc1cccc(NC(=O)Cc2nnc(SCCOc3ccccc3)n2C)c1	3%
CC1(C)SCC2C(=O)N3C(CSC3(C)C)C(=O)N21 (stereo not drawn)	18%
Cc1ccc(CSc2nnc(-c3cccs3)n2C)cc1	14%
c1ccc(-n2nnnc2OCCOc2nnnn2-c2ccccc2)cc1	-1%
Cc1cccc(-n2c(O)c(C=Nc3ccc4c(c3)OCO4)c3ccccc3c2=O)n1	-5%
O=S(=O)(N1CCOCC1)n1nnc2ccccc21	6%
CCc1cccc(NC(=O)c2snc3c(=O)[nH]cnc23)c1	-4%
O=C(NC1CCCCC1)c1ccc(CNc2ccccc2)o1	1%
COc1cccc(NC(=O)CNC(=O)c2ccccc2)c1	12%
CCOc1ccccc1NC(=O)CC1Nc2cc(C)c(C)cc2NC1=O (stereo not drawn)	20µM*
CCN(CC)C(=O)C1CCCN(Cc2cccc(F)c2)C1 (stereo not drawn)	-4%
Cn1cc(CNC(=O)C2c3ccccc3Oc3ccccc32)cn1	4%
O=c1c2nnn(Cc3ccc(Cl)cc3)c2ncn1Cc1ccc(F)cc1	5%
Cn1c(=O)oc2cc(S(=O)(=O)N3CCN(c4ccccc4)CC3)ccc21	8%
CCN[C@@H]1CN(CCCOC)S(=O)(=O)c2sc(S(N)(=O)=O)cc21	6%[25.6 µM]
CC1=C(C(=O)OCc2ccccc2)C(c2ccco2)n2ncnc2N1 (stereo not drawn)	-1%
Cn1c(SCC(=O)NCc2ccccc2)nnc1C1CC1	4%
CCOc1ccc(C2C(C#N)=C(N)N3C(=C2C#N)Sc2ccccc23)cc1 (stereo not drawn)	?
CS(=O)(=O)N(CCc1ccccc1)CC(=O)Nc1ccc2c(c1)OCO2	-14%
O=C(c1cccc(COCC(F)(F)C(F)F)c1)N1CCN(c2ccccc2)CC1	-10%
CCCc1nnc(NC(=O)CN2CCOCC2)s1	-2%
CC(=O)Nc1cccc(NC(=O)c2c(-c3ccccc3)noc2C)c1	-5%
The listing continues:
SMILES	HSD17B inh
Cc1cccc(-n2nc3c(c2NC(=O)c2ccc(Br)o2)CSC3)c1	25µM*
CCCc1cc(=O)n2[nH]c(NCc3c(Cl)cccc3Cl)nc2n1	0%
Cc1ccccc1Nc1nc(N)nc(CN2CCN(c3ccccn3)CC2)n1	-3%
Cc1ccc(-c2nnn(CC(=O)NCc3ccccc3)n2)c(-n2cnnn2)c1	4%
Cc1ccc(C(=O)Nc2ccc(N3CCOCC3)cc2)cc1	-13%
COc1ccc(CC(=O)NCc2ccccc2)cc1S(=O)(=O)N1CCOCC1	2%
CCCc1ncc(C(O)c2cccc3ccccc23)n1C (stereo not drawn)	-10%
O=C(O)CC1(Cc2nc(-c3cccs3)no2)CCCC1	3%
O=C(CCCn1c(SCC(=O)c2ccc(F)cc2)nc2ccccc2c1=O)NCc1ccco1	-6%
COc1ccc(N2C(=O)CCC(C(=O)NCCN3CCOCC3)C2c2ccc(OC)c(OC)c2)cc1 (stereo not drawn)	16%
COc1ccc(Nc2cc(C(=O)NCCCN3CCN(C)CC3)c3ccccc3n2)c(OC)c1	-9%
O=C(NCCCN1CCCCCC1)C1CC(=O)N(C2CCCC2)C1 (stereo not drawn)	7%
O=C(Cn1cnc2c(nnn2Cc2ccccc2)c1=O)c1ccc(Cl)cc1	12%
Cc1nc(SCC#N)c2c(C)c(C)sc2n1	-1%
CCCCCn1c(Sc2ncccn2)nc2c1c(=O)[nH]c(=O)n2C	15%
COc1cccc(OC)c1C(=O)Nc1cccc(C(C)=O)c1	4%
CC(Cc1ccccc1)C(=O)NCc1ccccn1 (stereo not drawn)	13%
CC(=O)Cc1nsc(NC(=O)c2ccc(-c3ccccc3Cl)o2)n1	-22%
CC(C)=C(NC(=O)c1ccccc1)C(=O)N1CCOCC1	6%
CC(C#N)Sc1nc2ccccc2c(=O)n1-c1ccccc1 (stereo not drawn)	7%
CC1CCCc2sc3nc(N4CCN(CCO)CC4)n4ncnc4c3c21 (stereo not drawn)	4%

Part of the list above, with bars between the fields.
Structure | HSD17B inh
CC1=C(C(=O)OCc2ccccc2)C(c2ccco2)n2ncnc2N1 (stereo not drawn) | -1%
Cn1c(SCC(=O)NCc2ccccc2)nnc1C1CC1 | 4%
CCOc1ccc(C2C(C#N)=C(N)N3C(=C2C#N)Sc2ccccc23)cc1 (stereo not drawn) | ?
CS(=O)(=O)N(CCc1ccccc1)CC(=O)Nc1ccc2c(c1)OCO2 | -14%
O=C(c1cccc(COCC(F)(F)C(F)F)c1)N1CCN(c2ccccc2)CC1 | -10%
CCCc1nnc(NC(=O)CN2CCOCC2)s1 | -2%
CC(=O)Nc1cccc(NC(=O)c2c(-c3ccccc3)noc2C)c1 | -5%
Cc1cccc(-n2nc3c(c2NC(=O)c2ccc(Br)o2)CSC3)c1 | 25µM*
CCCc1cc(=O)n2[nH]c(NCc3c(Cl)cccc3Cl)nc2n1 | 0%
Cc1ccccc1Nc1nc(N)nc(CN2CCN(c3ccccn3)CC2)n1 | -3%
Cc1ccc(-c2nnn(CC(=O)NCc3ccccc3)n2)c(-n2cnnn2)c1 | 4%
Cc1ccc(C(=O)Nc2ccc(N3CCOCC3)cc2)cc1 | -13%
COc1ccc(CC(=O)NCc2ccccc2)cc1S(=O)(=O)N1CCOCC1 | 2%
CCCc1ncc(C(O)c2cccc3ccccc23)n1C (stereo not drawn) | -10%
O=C(O)CC1(Cc2nc(-c3cccs3)no2)CCCC1 | 3%
O=C(CCCn1c(SCC(=O)c2ccc(F)cc2)nc2ccccc2c1=O)NCc1ccco1 | -6%
COc1ccc(N2C(=O)CCC(C(=O)NCCN3CCOCC3)C2c2ccc(OC)c(OC)c2)cc1 (stereo not drawn) | 16%
COc1ccc(Nc2cc(C(=O)NCCCN3CCN(C)CC3)c3ccccc3n2)c(OC)c1 | -9%
O=C(NCCCN1CCCCCC1)C1CC(=O)N(C2CCCC2)C1 (stereo not drawn) | 7%
O=C(Cn1cnc2c(nnn2Cc2ccccc2)c1=O)c1ccc(Cl)cc1 | 12%
Cc1nc(SCC#N)c2c(C)c(C)sc2n1 | -1%
